Mtb bLac sens: beta-lactam sensitization of Mtb H37Rv; M. tuberculosis H37Rv growth with meropenem, percent inhibition; hits of this screen are not shown here; inhibition, % at 25 µM; 330,000 compounds, 0.27% hits;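 active = about 74% or more and at least 40 points above the plate without the antibiotic, then above 30% in a dose series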;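 also: growth measured after seven days incubation then overnight dye step; 0% = bacteria only wells and 100% = bacteria with antibiotic; twin plates without the antibiotic show which effects depend on it; some results filed as inactive read as strong as hits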
Mtb growth: M. tuberculosis H37Rv growth inhibitors, H37Rv strain (AID 1626). M. tuberculosis H37Rv growth inhibition; higher % means a stronger effect. inhibition, % at 10 µM; hits with a dose series show IC50 in µM. 220,000 compounds, 0.95% hits;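 active = confirmed in a dose series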;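 also: bacteria incubated seven days before Alamar blue readout; 0% = bacteria only wells and 100% = bacteria with antibiotic wells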
YopH inh: blocks Yersinia enterocolitica YopH tyrosine phosphatase. AID 898. inhibition, %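 (about 10 µM by stock and volumes)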. 140,000 compounds, 0.16% hits. fluorescence Ex485/Em525;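 active = inhibition of 50% or more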;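 also: controls were vehicle for no effect and minimum signal wells for full effect; inactives centre near -20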
RecA intein inh: blocks M. tuberculosis RecA intein splicing; cell-free RecA intein splicing, fluorescence; inhibition, %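 (about 9 µM by stock and volumes)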; AID 2221; 290,000 compounds, 0.75% hits; P9WHJ3; in the data active = inhibition above about 30%;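 also: 0% = vehicle wells and 100% = reference inhibitor control wells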
Target sequence (P9WHJ3 whole entry, looked up): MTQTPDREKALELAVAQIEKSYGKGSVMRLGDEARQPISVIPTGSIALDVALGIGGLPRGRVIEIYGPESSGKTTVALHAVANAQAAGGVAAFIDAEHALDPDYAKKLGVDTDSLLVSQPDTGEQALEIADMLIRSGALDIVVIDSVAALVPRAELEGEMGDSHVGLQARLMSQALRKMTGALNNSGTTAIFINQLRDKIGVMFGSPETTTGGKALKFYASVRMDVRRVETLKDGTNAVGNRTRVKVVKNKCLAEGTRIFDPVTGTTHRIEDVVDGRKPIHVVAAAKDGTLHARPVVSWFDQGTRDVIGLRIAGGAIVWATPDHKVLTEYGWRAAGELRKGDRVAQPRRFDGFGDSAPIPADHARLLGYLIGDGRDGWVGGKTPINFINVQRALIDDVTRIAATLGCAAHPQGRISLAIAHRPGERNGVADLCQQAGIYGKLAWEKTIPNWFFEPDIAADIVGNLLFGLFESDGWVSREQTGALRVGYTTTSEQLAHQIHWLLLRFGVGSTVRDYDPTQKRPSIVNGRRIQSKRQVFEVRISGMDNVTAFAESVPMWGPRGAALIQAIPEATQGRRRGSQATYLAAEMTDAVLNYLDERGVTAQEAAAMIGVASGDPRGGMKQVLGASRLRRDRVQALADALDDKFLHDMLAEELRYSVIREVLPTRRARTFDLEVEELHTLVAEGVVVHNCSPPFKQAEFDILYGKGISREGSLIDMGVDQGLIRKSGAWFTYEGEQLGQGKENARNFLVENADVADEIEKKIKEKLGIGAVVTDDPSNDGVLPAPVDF
Arbovirus inh: antivirals against arbovirus infection; arbovirus infection cell-based antiviral screen; inhibition, % at 10 µM; 200,000 compounds, 0.37% hits;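 active = inhibition from about 30%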;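 also: bluetongue infection of BSR cells; cell survival read as ATP light after 72 h; 0% = infected wells without compound and 100% = uninfected wells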
Arbovirus inh repeat: recorded beside Arbovirus inh, whose call it bears; inhibition, %; measured here: 10K subset replicate screen; many hits read low in the repeat;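 first of two repeat runs on a subset; 0% = infected and 100% = uninfected wells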
Numbers without * were called inactive. These rows are one share of the data; rates above refer to the full screens.

Start of the listing, in advance, two compounds:
What do the screens show for `COc1ccc(C2/C(=C(/O)c3ccc(C)cc3)C(=O)C(=O)N2CCCN2CCOCC2)cc1` (stereo not drawn)?
Mtb bLac sens: -7.0; RecA intein inh: -4.0

Results for Cc1ccsc1/C=N/N1CCN(Cc2ccccc2)CC1 ?
Mtb bLac sens: -4.0; Mtb growth: -3.0%; RecA intein inh: -0.8; Arbovirus inh: 1.6

The list itself (from the top)
What do the screens show for `COc1ccc(C2/C(=C(/O)c3ccc(C)cc3)C(=O)C(=O)N2CCCN2CCOCC2)cc1` (stereo not drawn)?
Mtb bLac sens: -7.0; RecA intein inh: -4.0

Results for Cc1ccsc1/C=N/N1CCN(Cc2ccccc2)CC1 ?
Mtb bLac sens: -4.0; Mtb growth: -3.0%; RecA intein inh: -0.8; Arbovirus inh: 1.6

Results for CC1CCCC(NC(=O)C2CCC(CNc3c(N4CCCCC4)c(=O)c3=O)CC2)C1C (stereo not drawn) ?
Mtb bLac sens: -6.8; Mtb growth: -10.3%; RecA intein inh: -4.7

What do the screens show for `CC1(C)CC2(C)OCCN2C(=S)N1` (stereo not drawn)?
Mtb bLac sens: -4.5; Mtb growth: -10.6%; RecA intein inh: 0.3

What do the screens show for `O=C1NC(=O)N(c2ccc(Cl)cc2)C(=O)/C1=C\c1ccc(Sc2nc3ccccc3[nH]2)o1`?
Mtb bLac sens: 3.4; Mtb growth: -4.3%; YopH inh: 1.6; RecA intein inh: 14.7; Arbovirus inh: 15.8

What do the screens show for `O=C(CN1CCc2cc3c(cc2C1)OCCCO3)Nc1c(F)cccc1F`?
Mtb bLac sens: -11.4; RecA intein inh: -2.6

Results for CCCc1c(O)c2ccccc2[nH]c1=O ?
Mtb bLac sens: 10.0; Mtb growth: -10.2%; YopH inh: -40.3; RecA intein inh: -1.4; Arbovirus inh: -2.6

Results for Cn1c(Cn2nnc3ccccc32)nnc1SCC(N)=O ?
Mtb bLac sens: 11.2; Mtb growth: -0.4%; YopH inh: -15.5; RecA intein inh: 0.2; Arbovirus inh: 6.4

How did Cc1cc(C(=O)CSc2nnc(N)s2)c(C)n1CCc1ccc(F)cc1 do in these assays?
Mtb bLac sens: -5.5; Mtb growth: -7.3%; YopH inh: -44.9; RecA intein inh: 0.5; Arbovirus inh: -12.3

How did CCOC(=O)N1CCN(C(=O)c2ccc(CS(=O)(=O)c3ccccc3OC)o2)CC1 do in these assays?
Mtb bLac sens: 0.4; Mtb growth: -6.1%; YopH inh: -21.9; RecA intein inh: 1.8; Arbovirus inh: 6.8

What do the screens show for `CN(c1ccc(C(=O)NCc2cccnc2)cc1)S(=O)(=O)c1ccc(Cl)cc1`?
Mtb bLac sens: -0.7; RecA intein inh: -0.9

Results for C=CCn1c(SCCC(=O)O)nnc1-c1cccs1 ?
Mtb bLac sens: -2.8; Mtb growth: -0.8%; YopH inh: 14.9; RecA intein inh: 1.6; Arbovirus inh: 2.3

Results for O=C(COc1ccccc1)Nc1ccc(CN2CCCCC2)cc1 ?
Mtb bLac sens: -7.6; Mtb growth: 1.1%; RecA intein inh: -46.5; Arbovirus inh: -2.0

Results for Cc1cc(OC(=O)c2c(C)cc(OC(=O)c3c(C)cc(O)cc3O)cc2O)cc(O)c1C(=O)O ?
Mtb bLac sens: 20.1; Mtb growth: 10.5%; RecA intein inh: 10.9

Results for Cc1cc(C)c2nc(SCC(=O)NCCN3C(=O)CSC3=O)cc(C)c2c1 ?
Mtb bLac sens: 3.6; Mtb growth: 3.6%; YopH inh: -12.1; RecA intein inh: -1.6; Arbovirus inh: 3.5

What do the screens show for `CC1(CC(=O)N/N=C/c2cc([N+](=O)[O-])c(O)cc2O)OCCO1`?
Mtb bLac sens: -1.0; Mtb growth: 1.6%; RecA intein inh: -2.0; Arbovirus inh: 26.8

What do the screens show for `CC(C)N(C(=O)COC(=O)[C@H](C)NC(=O)c1ccco1)c1ccccc1`?
Mtb bLac sens: 3.8; Mtb growth: 0.2%; RecA intein inh: 3.7; Arbovirus inh: -5.5

How did Cc1nc(N2CCN(c3ccccn3)CC2)c2c(C)c(C(=O)Nc3ccc(F)cc3)sc2n1 do in these assays?
Mtb bLac sens: 97.5; Mtb growth: 77.1%; RecA intein inh: -0.6; Arbovirus inh: -1.0

How did Cc1cccc(-n2c(N)cc(=O)nc2SCC(=O)Nc2cc(C)on2)c1 do in these assays?
Mtb bLac sens: -12.1; Mtb growth: 42.6%; YopH inh: -27.1; RecA intein inh: 1.2; Arbovirus inh: -2.7

What do the screens show for `CCOC(=O)C(Sc1cc(-c2ccccc2)nc2ncnn12)C(C)=O` (stereo not drawn)?
Mtb bLac sens: 95.9; Mtb growth: 8.6%; RecA intein inh: 0.8

How did CC1CCN(Cc2cc(=O)oc3ccc(C(C)C)cc23)CC1 do in these assays?
Mtb bLac sens: 0.3; RecA intein inh: 4.0

What do the screens show for `CCC(CC)c1nnc(NC(=O)c2ccc([N+](=O)[O-])cc2)s1`?
Mtb bLac sens: 5.2; Mtb growth: 12.0%; YopH inh: -19.6; RecA intein inh: -0.2; Arbovirus inh: -3.8

How did CC(=O)C1C(=O)CC(c2ccc(Cl)cc2)CC1=O (stereo not drawn) do in these assays?
Mtb bLac sens: 0.6; Mtb growth: -1.3%; RecA intein inh: -2.7

How did Cc1noc(-c2ccc(C(F)(F)F)cc2)c1NC(=O)Nc1ccc(Cl)cc1 do in these assays?
Mtb bLac sens: 26.4; Mtb growth: 13.4%; RecA intein inh: -3.8

Results for CCC(C)(C)n1nnnc1C(c1cc2ccc(OC)cc2[nH]c1=O)N1CCN(C2CCCCC2)CC1 (stereo not drawn) ?
Mtb bLac sens: 0.7; Mtb growth: 0.6%; YopH inh: -6.6; Arbovirus inh: 4.5

How did CCOc1ccc(CNc2ccc(N3CCCC3)cc2)cc1 do in these assays?
Mtb bLac sens: 76.7; Mtb growth: 11.2%; YopH inh: 5.5; RecA intein inh: 1.4; Arbovirus inh: -15.6

What do the screens show for `CC(=O)NC(CCS(C)(=O)=O)C(=O)Nc1cc(C)ccc1C` (stereo not drawn)?
Mtb bLac sens: -2.2; Mtb growth: 3.7%; YopH inh: 18.0; RecA intein inh: 0.1; Arbovirus inh: -0.1; Arbovirus inh repeat: -1.6

Results for N#Cc1ccccc1NC(=O)c1ccccc1OCC(=O)Nc1ccc2c(c1)oc1ccccc12 ?
Mtb bLac sens: 98.4; Mtb growth: 71.1%; YopH inh: -2.7; RecA intein inh: 2.7

What do the screens show for `CCCc1cc(O)c2c(C)cc(=O)oc2c1`?
Mtb bLac sens: -2.3; Mtb growth: 3.1%; YopH inh: -32.3; RecA intein inh: 0.3; Arbovirus inh: 8.9

Results for COCCn1c(SCC(=O)c2ccc(Cl)cc2)nnc1C(C)C ?
Mtb bLac sens: 2.5; Mtb growth: -12.1%; YopH inh: -52.8; RecA intein inh: 4.5; Arbovirus inh: -6.1

Results for CCCc1nc2sc3c(c2c(=O)n1NC(=O)CCC(=O)OC)CCCC3 ?
Mtb bLac sens: 47.9; Mtb growth: -2.5%; RecA intein inh: 1.6

How did O=C(CCc1nc2ccccc2c(=O)[nH]1)OCC(=O)N1CCc2ccccc21 do in these assays?
Mtb bLac sens: -5.9; Mtb growth: -1.4%; RecA intein inh: 0.2; Arbovirus inh: -0.1

What do the screens show for `CCOC(=O)c1[nH]c(C)c(CN(Cc2ccco2)C(=O)C(F)(F)F)c1C`?
Mtb bLac sens: 0.2; Mtb growth: 9.1%; YopH inh: 16.0; RecA intein inh: 1.8; Arbovirus inh: -7.7

How did Cc1cccc(C(=O)OC(C)C(=O)Nc2ccc(S(=O)(=O)N3CCCC3)cc2)c1O (stereo not drawn) do in these assays?
Mtb bLac sens: -5.2; RecA intein inh: 7.3

What do the screens show for `O=C(NNC(=O)c1ccc(F)cc1)c1ccncc1`?
Mtb bLac sens: 2.7; RecA intein inh: 2.2

How did COc1ccc(C(=O)n2c(SC)nc3cc4c(cc32)OCCO4)cc1 do in these assays?
Mtb growth: -4.1%; YopH inh: -1.4; Arbovirus inh: -1.4

Results for CC1CN(Cc2ccccc2)c2nc3c(c(=O)[nH]c(=O)n3C)n2C1 (stereo not drawn) ?
Mtb bLac sens: -4.3; Mtb growth: 0.7%; RecA intein inh: 1.0

What do the screens show for `CCc1ccc(N(C(=O)c2csnn2)C(C(=O)NC2CCCC2)c2cccnc2)cc1` (stereo not drawn)?
Mtb bLac sens: -0.3; RecA intein inh: 0.8

What do the screens show for `c1cnc2c(c1)ccc1ncccc12`?
Mtb bLac sens: -9.2; Mtb growth: -11.1%; RecA intein inh: -1.4

What do the screens show for `CC(/C=C/c1ccccc1)=N/NC(=O)CNC(=O)c1ccc2c(c1)OCO2`?
Mtb bLac sens: 10.3; YopH inh: -37.3; RecA intein inh: -1.8; Arbovirus inh: -14.2

Filtered by structure: the compounds so far containing two or more sulfur atoms
How did Cc1cc(C(=O)CSc2nnc(N)s2)c(C)n1CCc1ccc(F)cc1 do in these assays?
Mtb bLac sens: -5.5; Mtb growth: -7.3%; YopH inh: -44.9; RecA intein inh: 0.5; Arbovirus inh: -12.3

Results for C=CCn1c(SCCC(=O)O)nnc1-c1cccs1 ?
Mtb bLac sens: -2.8; Mtb growth: -0.8%; YopH inh: 14.9; RecA intein inh: 1.6; Arbovirus inh: 2.3

Results for Cc1cc(C)c2nc(SCC(=O)NCCN3C(=O)CSC3=O)cc(C)c2c1 ?
Mtb bLac sens: 3.6; Mtb growth: 3.6%; YopH inh: -12.1; RecA intein inh: -1.6; Arbovirus inh: 3.5

Continued.
How did CC1=CC(C)(C)N(C(=O)CN2C(=O)CCC2=O)c2ccccc21 do in these assays?
Mtb bLac sens: 7.0; Mtb growth: 0.3%; Arbovirus inh: -5.0

What do the screens show for `COC(=O)c1ccc(S(=O)(=O)NCc2ccco2)o1`?
Mtb bLac sens: -2.8; Mtb growth: -7.5%; RecA intein inh: -5.3

How did COC(=O)CCC(=O)N(C)CC1CCCN(CCc2cccc(C(F)(F)F)c2)C1 (stereo not drawn) do in these assays?
Mtb bLac sens: -3.6; RecA intein inh: 1.8

Results for CNCCC=C1c2ccccc2CCc2ccccc21 ?
Mtb bLac sens: -8.1; Mtb growth: 1.5%; YopH inh: -36.8; RecA intein inh: 1.3; Arbovirus inh: -41.3

How did CCc1c(C)nc2ncnn2c1Nc1ccc(C)cc1 do in these assays?
Mtb bLac sens: -1.8; RecA intein inh: 0.0

Results for Cc1nc2c(n1C1CCCCC1)C(=O)c1ccccc1C2=O ?
Mtb bLac sens: 67.5; YopH inh: -27.7; RecA intein inh: 21.4; Arbovirus inh: 0.1

What do the screens show for `CCOc1ccc(C/C(N)=N/n2cnnc2)cc1`?
Mtb bLac sens: 10.9; Mtb growth: -4.0%; YopH inh: 18.1; RecA intein inh: 2.9; Arbovirus inh: 12.9

What do the screens show for `O=C(CN(CCO)c1ccccc1)NC12CC3CC(CC(C3)C1)C2`?
Mtb bLac sens: -3.2; Mtb growth: 6.3%; YopH inh: -8.1; RecA intein inh: -2.1; Arbovirus inh: -5.2

What do the screens show for `CCSc1ccccc1C(=O)NCc1cccnc1`?
Mtb bLac sens: 2.1; Mtb growth: -1.7%; RecA intein inh: 0.1; Arbovirus inh: 0.2

Results for CCOC(=O)c1c(-c2ccc(-c3ccccc3)cc2)csc1NC(=O)CCN1CCOCC1 ?
Mtb bLac sens: 60.2; Mtb growth: 74.5%; YopH inh: -21.7; RecA intein inh: 0.7; Arbovirus inh: -8.5

Results for CN(C)CCNC(=O)C(=O)C1C(=O)Nc2ccccc21 (stereo not drawn) ?
Mtb bLac sens: -2.4; Mtb growth: -4.1%; RecA intein inh: -4.6; Arbovirus inh: 3.5

Results for C=CCNc1nc(-c2cccc(OC)c2O)nc2ccccc12 ?
Mtb bLac sens: -1.1; Mtb growth: -2.5%; YopH inh: -38.1; RecA intein inh: 15.0; Arbovirus inh: -15.8

What do the screens show for `COc1ccc(N2CCN(C(CNS(=O)(=O)c3cccs3)c3cccnc3)CC2)cc1` (stereo not drawn)?
Mtb bLac sens: -22.6; Mtb growth: 9.2%; YopH inh: -7.2; RecA intein inh: -1.7; Arbovirus inh: 11.7

What do the screens show for `CC(=O)c1c(C)[nH]c(C(=O)OC(C)C(=O)Nc2cc(S(=O)(=O)N3CCCCC3)ccc2Cl)c1C` (stereo not drawn)?
Mtb bLac sens: -0.3; Mtb growth: 1.0%; YopH inh: -19.2; RecA intein inh: 0.2; Arbovirus inh: -7.5

How did CN1CCCC1CCNS(=O)(=O)c1ccc(Br)cc1 (stereo not drawn) do in these assays?
Mtb bLac sens: -15.4; Mtb growth: 1.5%; YopH inh: -10.0; RecA intein inh: 0.6; Arbovirus inh: -7.5

How did CC(C)CCN=CC1=C(O)CC(c2ccccc2)CC1=O (stereo not drawn) do in these assays?
Mtb bLac sens: -0.3; Mtb growth: 4.7%; RecA intein inh: -4.1; Arbovirus inh: -5.4

What do the screens show for `CCN(CC)CCNS(=O)(=O)c1ccc2c3c(cccc13)C(=O)N2`?
Mtb bLac sens: -1.1; RecA intein inh: -200.8
